# Rango release inh – qHTS Assay for Inhibitors of RanGTP induced Rango (Ran-regulated importin-beta cargo) - Importin beta complex dissociation. Snurportin-1 (Homo sapiens) + GTP-binding nuclear protein Ran (Homo sapiens) + Importin …. Biochemical FRET Rango-importin beta, RanGTP-induced dissociation. Potency, µM (doses to about 46.1 µM), without a hit: top-dose activity change, negative = inhibition. hit rate 0.071% among 340,000; active means falling FRET ratio curve, often poorly fitted, with flat reads before Ran was added; inconclusive means other falling curves, or compound fluorescence or quenching; inactive means flat or rising ratio curve;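 note: potency is the fitted concentration of half-maximal effect; % of control where 0% means no effect; nearly all actives have a fitted effect of over 45% in size; -100% = wells without RanGTP and RCC1; the record marks most hits as doubtful in a second field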
#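 Compounds sat 5 min at room temperature with 0.1 uM Rango biosensor plus 0.25 uM importin beta, then FRET pre-read. RanGTP-RCC1 (0.6 uM Ran, 2mM GTP, 0.2 uM RCC1) added for 45 min, and the CFP/YFP post-read measured blocked complex dissociation.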
# GLA inh pH 4.5 – qHTS Assay for Inhibitors of Human alpha-Galactosidase at pH 4.5 | 230,000 tested, under 10 active | purified enzyme, 4-MU-alpha-Gal fluorescence, pH 4.5 | Alpha-galactosidase A (Homo sapiens), P06280 | activity change, negative = inhibition, % at 105 µM; inconclusive = small, poorly fitted or top-dose-only inhibition, or a rising curve; inactive = flat fitted curve, though single readings scatter; no compound was filed as active;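 note: 0% = full activity with enzyme and -100% = basal without enzyme; dose as in the result columns while the protocol names 77 µM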
# Target sequence (P06280 whole entry, looked up): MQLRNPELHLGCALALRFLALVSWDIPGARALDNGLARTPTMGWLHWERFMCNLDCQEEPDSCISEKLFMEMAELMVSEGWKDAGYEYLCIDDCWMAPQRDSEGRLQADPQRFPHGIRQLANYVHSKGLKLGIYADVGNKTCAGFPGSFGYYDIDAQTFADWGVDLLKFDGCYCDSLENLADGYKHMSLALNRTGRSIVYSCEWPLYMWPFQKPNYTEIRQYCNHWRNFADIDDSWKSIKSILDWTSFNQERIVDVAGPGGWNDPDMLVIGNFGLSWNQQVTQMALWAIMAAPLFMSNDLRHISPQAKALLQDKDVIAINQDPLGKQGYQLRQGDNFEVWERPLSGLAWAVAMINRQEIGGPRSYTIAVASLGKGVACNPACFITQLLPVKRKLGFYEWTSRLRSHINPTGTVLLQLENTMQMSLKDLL
# miR-21 reporter – qHTS Assay for Modulators of miRNAs and/orActivators of miR-21 | HeLa miR-21 FLuc reporter, luciferase, 48 h | Potency, µM (titrated, usually from 38.3 µM), for the others: at the highest dose reporter change, positive = more light | 340,000 tested, under 10 active; active = well fitted rising curve with a large enough effect; inconclusive = small, poorly fitted or top-dose-only effect; inactive = no such curve, though single readings can be large or run the other way;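 note: % of control where 0% means no effect; miR-21 action dims this reporter so a rising signal means less miR-21 action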
#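 HeLa miR-21-FLuc reporter line, endogenous miR-21; 2000 cells/well in DMEM/10% FBS; compound titration up to ~40uM final, 48 h, 37 degree Celsius; luciferase detection reagent, 15 min lysis, CCD luminescence.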
# Rango complex inh – qHTS Assay for Inhibitors of Rango (Ran-regulated importin-beta cargo) - Importin beta complex formation; Importin subunit beta-1 (Homo sapiens), Q14974; Rango CFP/YFP FRET sensor + importin beta, 45 min; Potency, µM (series often up to 92.2 µM), for the others: at the top dose inhibition of complex formation; hit rate 0.031% among 340,000; AID 540263, 2011; active = rising FRET ratio curve, often small or poorly fitted; inconclusive = mostly compound fluorescence or quenching in the first reads; inactive = flat curves in all reads;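 note: potency is the fitted concentration of half-maximal effect; 0% = DMSO wells and 100% = buffer wells lacking importin beta; nearly all actives have a fitted effect of over 15% in size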
#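 Inhibition scored from the CFP 486 nm/YFP 530 nm FRET ratio 45 min after adding 0.125 microM importin beta to 50 nM Rango biosensor preincubated 5 min with compound (room temperature, PBS with DTT, Tween-20, BSA). No-importin wells as positive control.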
# * = called active by the depositor; ? = inconclusive; / = not tested or not shown. An excerpt (hit frequency here may not be typical).
Rango release inh,GLA inh pH 4.5,Molecule,miR-21 reporter,Rango complex inh
11%,3,C=C(C)c1cccc(C(C)(C)NC(=O)N(C)C2CCN(C)CC2)c1,-5%,-1.6%
1%,2,O=c1c(-c2ccccc2)c(O)nc2ccccn12,-1%,-2.0%
-10%,/,O=C(COC(=O)CNC(=O)c1ccc(Cl)cc1)Nc1ccc(Cl)cn1,/,0.0%
17%,-2,O=C1CC(c2cccs2)CC(O)=C1C=NCCN1CCNCC1 (centres undefined),-2%,-0.9%
18%,/,O=[N+]([O-])c1cc(Cl)ccc1NCCc1ccccn1,-47%,-3.7%
-8%,3,CNCC(O)CN1CCN(c2ccccc2OC)CC1 (centres undefined),-1%,-0.6%
2%,-1,Cn1ncc2nc[nH]c(=O)c21,-4%,0.4%
-10%,-21,O=[N+]([O-])c1ccc(N2CCOCC2)cc1NCCCO,-8%,-4.9%
3%,-3,S=C(Nc1ccccc1Oc1ccccc1)NC1CCCC1,7%,-1.0%
/,1,CCOc1ccccc1NC(=O)c1c(NC(=O)CNCc2ccco2)sc2c1CCC2,-1%,/
1%,2,CCOC(=O)c1ccc(NC(=S)NN2CCN(C)CC2)cc1,-2%,-1.5%
-2%,/,O=C(C1CCCCC1)N1CCC(c2nc3c(nnn3Cc3ccccc3Cl)c(=O)[nH]2)CC1,/,-4.3%
3%,/,COc1ccc(S(=O)(=O)N(CC(C)C)C2CCS(=O)(=O)C2)cc1OC (centres undefined),/,-0.3%
5%,-1,CCC(=O)N=c1sc2c(C)cc(C)cc2n1CC(=O)OC,-1%,5.2%
33%,/,O=C(Nc1ccccc1C(=O)NCCCN1CCOCC1)c1ccc(F)cc1,0%,-0.7%
-10%,-9,COc1ccc2c(C)cc(SCn3nnc4ccccc4c3=O)nc2c1,-5%,0.7%
13%,2,O=C(NCc1cccnc1)c1cnc2ccccc2n1,-4%,0.1%
-6%,0,O=C(COC(=O)C1=COCCO1)Nc1ccc(Oc2ccccc2)cc1,-12%,0.1%
-10%,/,CC(C)c1ccc(C(=O)CN2C(=O)NC3(CCc4ccccc43)C2=O)cc1 (centres undefined),/,0.0%
13%,0,Cc1cc(C)n(-c2nc3c(c(=O)[nH]c(=O)n3C)n2CC(O)COc2ccc(Cl)cc2Cl)n1 (centres undefined),-3%,-2.1%
/,-2,CCc1nc(SCC(=O)Nc2c(C)nn(C)c2C)c2cnn(-c3ccccc3)c2n1,0%,/
15%,/,O=C(NCCCN1CCOCC1)c1cc(-c2ccc(Cl)c(Cl)c2)on1,-3%,-0.1%
3%,8,CCOC(=O)c1[nH]c2ccc(F)cc2c1NC(=O)Nc1ccccc1OC,1%,-1.1%
-4%,2,CC(C)Oc1ccc(C(=O)Nc2cc(=O)n(C)c(=O)n2C)cc1,-12%,1.3%
-9%,2,CCC(C(=O)O/N=C(\N)c1ccc(Cl)cc1)c1ccccc1 (centres undefined),-5%,-0.3%
-5%,/,O=c1c2ccccc2[nH]c(=S)n1CCCN1CCC(Cc2ccccc2)CC1,5%,-0.1%
-18%,/,C/C(=N\NC(=O)c1nnn(-c2nonc2N)c1C(C)C)c1ccncc1,-9%,1.0%
-5%,/,O=C1CN(C(=O)c2ccccc2F)C(c2ccccc2)c2cc(Cl)ccc2N1 (centres undefined),9%,-0.1%
-4%,/,O=C(O)CN1CCN(Cc2cccc(Cl)c2)C1=O,-1%,0.7%
?,-4,Cc1ccc2cc3c(NC(=O)CC(C)C)nn(C)c3nc2c1,0%,?

# Results in Rango release inh and miR-21 reporter (2 entries from above):
structure,Rango release inh,miR-21 reporter
CCC(C(=O)O/N=C(\N)c1ccc(Cl)cc1)c1ccccc1 (centres undefined),-9%,-5%
O=c1c2ccccc2[nH]c(=S)n1CCCN1CCC(Cc2ccccc2)CC1,-5%,5%

# Filtered by structure, the compounds so far with a nitro group on carbon
Rango release inh,GLA inh pH 4.5,Molecule,miR-21 reporter,Rango complex inh
18%,/,O=[N+]([O-])c1cc(Cl)ccc1NCCc1ccccn1,-47%,-3.7%
-10%,-21,O=[N+]([O-])c1ccc(N2CCOCC2)cc1NCCCO,-8%,-4.9%

# Continued:
Rango release inh,GLA inh pH 4.5,Molecule,miR-21 reporter,Rango complex inh
25%,/,CCn1c(=O)c(C(=O)NNC(=O)c2ccccc2)c(O)c2ccccc21,15%,-1.1%
-3%,5,COc1ccc(N2C(=O)CC(N3CCN(C(=O)c4ccco4)CC3)C2=O)cc1 (centres undefined),0%,9.3%
3%,3,CC(C)(C)C1CCc2c(C(=O)NNC(=O)CCC(=O)O)csc2C1 (centres undefined),-3%,0.1%
-5%,5,CNc1oc(-c2cccs2)nc1S(=O)(=O)c1ccccc1,2%,4.1%
2%,-4,CC(C)(C)NS(=O)(=O)c1ccc(NC(=O)NC2CCCCC2)cc1,-26%,-1.1%
6%,5,Cc1ccc(NC(=O)C2CC=CCC2C(=O)N2CCCCC2)cc1 (centres undefined),-7%,-0.2%
-4%,-5,O=[N+]([O-])c1cc(Cl)ccc1N1CCCC1,-1%,-2.7%
-2%,4,CS(=O)(=O)c1ccccc1C(=O)NC1CCCc2ccccc21 (centres undefined),2%,0.3%
-4%,9,CC(=O)Nc1ccc(NC(=O)C/C(C)=N/NC(=O)C(=O)Nc2ccc(C)c(Cl)c2)cc1,-7%,0.6%
-5%,11,Cc1ccc(CNC(=O)C2C3C=CC4(CN(Cc5cccnc5)C(=O)C24)O3)cc1 (centres undefined),-5%,-0.9%
5%,5,Cc1cc(NC(=O)/C=C/c2ccco2)ccc1NC(=O)c1ccccc1,-4%,-0.9%
9%,-1,O=C(CCSCc1ccc(Cl)cc1)NCCC1=CCCCC1,-4%,1.2%
2%,/,COc1ccc(/C=N/NC(=O)c2ccc3c(c2)OCO3)c(C(=O)O)c1OC,0%,0.2%
44%,-1,Cc1ccc(CSc2nc3ccccc3cc2C=O)cc1,?,4.0%
-10%,-6,O=C1C(Nc2ccccc2)=C/C(=N/S(=O)(=O)c2cccs2)c2ccccc21,?,1.6%
1%,7,COc1ccc(C(=O)CSc2nnc(-c3ccc(S(=O)(=O)N4CCOCC4)cc3)o2)cc1,-2%,-0.5%
19%,/,O=C(C[C@H]1C[C@H](C(=O)N2CCOCC2)[C@@]2(CCC3CCCC3)c3[nH]c4ccc(Cl)cc4c3CCN2C1=O)NCc1ccco1,/,6.3%
-7%,2,Cc1nc2ccccc2c(=O)n1NC(=O)C1CCC(C(C)(C)C)CC1 (centres undefined),-2%,4.8%
-16%,-2,CC1=NN(C(=O)c2ccc(Br)cc2)C(O)(c2ccccc2)C1 (centres undefined),-7%,-1.6%
-3%,2,CCC(C)(C)C1CCC(=NNC(=O)c2ccc(Br)o2)CC1 (centres undefined),-46%,0.4%
2%,-2,CCCCOC(=O)Nc1ccc(C)c(Cl)c1,-51%,0.7%
8%,7,O=C(c1cc(F)ccc1F)C1CCCN(C(=O)CSc2ccccn2)C1 (centres undefined),-10%,-3.4%
-1%,/,N#CC1(c2ccccc2)CCC(=NNS(=O)(=O)c2ccccc2)CC1 (centres undefined),/,?
-1%,-1,O=C(COC(=O)c1ccc(Cl)c(S(=O)(=O)N2CCCC2)c1)NCc1cccs1,1%,0.8%
21%,/,C[C@H]1CN([C@@H](C)CO)C(=O)c2cccc(NC(=O)c3ccc(-c4nccs4)cc3)c2O[C@@H]1CN(C)C(=O)Nc1cccc2ccccc12,/,-5.0%
-3%,1,CNC(=S)NNC(=O)Cc1ccc(OC)c(OC)c1,-11%,-1.2%
15%,/,Cc1ccc(C(=O)N2CCCc3ccccc32)c(F)c1F,-3%,3.6%
-2%,-9,COc1ccccc1C(=O)Nc1ccc(-c2nnc(SCC(=O)O)n2C)cc1,-15%,3.5%
6%,9,COC(=O)[C@@H]1C(c2ccccc2)(c2ccccc2)[C@@]1(C)C(=O)OC,-9%,2.8%
?,11,Cc1csc2nc3cc(C(N)=O)ccc3c(=O)n12,-11%,?
4%,4,Cc1ccc(NC(=O)COC(=O)C2CCC(=O)N2)c(S(=O)(=O)N2CCOCC2)c1 (centres undefined),0%,4.5%
?,7,Cc1cc(C(=O)N/N=C/c2cc([N+](=O)[O-])cc(C)c2O)n[nH]1,29%,-2.8%
-3%,3,Cc1cn2nc(N)c3ccccc3c2n1,-12%,2.8%
-5%,2,CCC(CC)C(=O)Nc1c(C)n(C)n(-c2ccccc2)c1=O,-2%,3.8%
-16%,1,Cc1ccc(NC(=O)CC2SC(=O)N(c3ccccc3)C2=O)cc1 (centres undefined),-33%,-7.2%
2%,/,COc1ccc2cc1Oc1ccc(cc1)C[C@H]1c3c(cc(OC)c4c3Oc3c(ccc5c3[C@H](C2)N(C)CC5)O4)CCN1C,/,-2.1%
-9%,-2,Cc1cccc(C(=O)Nc2ccccc2SCC(=O)Nc2ccc(C)c(Cl)c2)c1,-26%,1.4%
-12%,8,O=C(Nc1ncnc2sc3c(c12)CCCCC3)c1ccccc1,-28%,2.3%
3%,/,CCCOc1ccc(-c2csc3nc[nH]c(=O)c23)cc1,-28%,0.8%
4%,/,Cc1ccc(S(=O)(=O)N2CCC[C@H]2C(=O)Nc2ccccc2Cl)cc1,/,0.4%
-16%,-8,CSc1ncccc1C(=O)Nc1nc2c(C)cccc2s1,-12%,-4.1%
-3%,/,COC(=O)c1ccccc1CC1Cc2cc3c(cc2C1=O)CCC3 (centres undefined),/,4.1%
-1%,/,COC(=O)[C@@]1(Cc2ccccc2)[C@H]2C(=O)N(C)C(=O)[C@H]2[C@H]2CN=C(SCC3CC3)N21,/,?
-1%,/,O=C(NCCNC(=O)c1ccccn1)c1ccc(F)cc1,-2%,-0.7%
0%,1,CCOc1ccc(NC(=S)c2ccncc2)cc1,-10%,0.0%
-8%,/,Cc1ccc(C)c(NC(=O)CNC(=O)N2CC(=O)Nc3ccccc32)c1,-4%,2.7%
15%,/,CCCCn1c(N)c(N(CCOC)C(=O)c2ccc(N3CCCC3)c([N+](=O)[O-])c2)c(=O)[nH]c1=O,/,0.1%
10%,-10,Cn1c(SCC(=O)Nc2cccc(O)c2)nnc1-c1ccc(S(=O)(=O)N2CCOCC2)cc1,-2%,2.1%
13%,3,CCC1(c2ccccc2)NC(=O)N(CC(=O)Nc2cccc(C#N)c2)C1=O (centres undefined),0%,0.1%
-5%,/,CCC1(c2ccc(Cl)cc2)NC(=O)N(CC(=O)NC2CCCC(C)C2C)C1=O (centres undefined),/,-0.4%
-5%,12,CCOC(=O)C1CCCN(C(=O)CSc2nccn2C)C1 (centres undefined),-2%,-2.6%
-9%,/,O=C(CCCCl)Nc1c2c(nn1-c1ccccc1)CSC2,-2%,-4.0%

# 2 compounds drawn at random from those above:
Rango release inh,GLA inh pH 4.5,Molecule,miR-21 reporter,Rango complex inh
-8%,/,Cc1ccc(C)c(NC(=O)CNC(=O)N2CC(=O)Nc3ccccc32)c1,-4%,2.7%
4%,4,Cc1ccc(NC(=O)COC(=O)C2CCC(=O)N2)c(S(=O)(=O)N2CCOCC2)c1 (centres undefined),0%,4.5%

# Of the compounds above, 3 have a tert-butyl group:
Rango release inh,GLA inh pH 4.5,Molecule,miR-21 reporter,Rango complex inh
3%,3,CC(C)(C)C1CCc2c(C(=O)NNC(=O)CCC(=O)O)csc2C1 (centres undefined),-3%,0.1%
2%,-4,CC(C)(C)NS(=O)(=O)c1ccc(NC(=O)NC2CCCCC2)cc1,-26%,-1.1%
-7%,2,Cc1nc2ccccc2c(=O)n1NC(=O)C1CCC(C(C)(C)C)CC1 (centres undefined),-2%,4.8%
